# Source: PubChem
# LASV entry inh = inhibitors of Lassa virus binding or cell entry | Lassa virus pseudotype entry inhibition, cell reporter; control for the full effect not named in the record | Potency, µM (top dose mostly 37.9 µM), inactives show top-dose activity change, negative = inhibition, actives largely listed as inhibitors | actives 1.2% (n = 300,000); active means well fitted inhibition curve with a large enough effect; inconclusive means small, poorly fitted or top-dose-only effect, or effect the other way; inactive means flat fitted curve, though single readings scatter; tested in HEK293 cells; also: % is scaled to controls: 0 for no effect and ±100 for the full control effect; nearly all actives have a fitted effect of over 50% in size; luciferase read-out
# NS1 inh = inhibitors of influenza NS1 protein function; S. cerevisiae slowed by influenza A NS1, growth recovery by OD600; Potency, µM (highest dose often 46.1 µM), inactives show at the top dose activity, positive = more growth; actives 0.4% (n = 270,000); AID 2326; also: actives are rising curves; nearly all actives have a fitted effect of over 50% in size
#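 OD600 was taken as the measure of yeast growth restored by compound in an NS1-expressing S. cerevisiae strain. Cells had been washed out of glucose medium and diluted 1:100 into galactose -URA medium, pH 6.0.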
# Marburg entry inh = inhibitors of Marburg virus binding or cell entry | Marburg virus pseudotyped entry inhibition, cell reporter; control for the full effect not named in the record; about a third of the inactives were read at about 46 µM | Potency, µM (series often up to 37.8 µM), for inactives: at the top dose activity change, negative = inhibition, actives largely listed as inhibitors | AID 540276 | actives 1.8% (n = 300,000); active = well fitted inhibition curve with a large enough effect; inconclusive = small, poorly fitted or top-dose-only effect, or effect the other way; inactive = flat fitted curve, though single readings scatter; tested in HEK293 cells; about a fifth of its hits are not listed in these tables; also: % is scaled to controls: 0 for no effect and ±100 for the full control effect; luciferase read-out
# RE007 growth inh = less growth of the S. pombe RE007 Vpr strain; actives 0.21% (n = 360,000); Potency, µM (series often up to 92.2 µM), for inactives: at the top dose activity change, negative = less growth; S. pombe RE007 Vpr strain, BacTiter-Glo ATP luminescence, 24 h; control for the full effect not named in the record; AID 651644; active = well fitted falling curve with a large enough effect; inconclusive = small, poorly fitted or top-dose-only effect; inactive = no such curve, though single readings can be large or run the other way;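 also: % is scaled to controls: 0 for no effect and ±100 for the full control effect; nearly all actives have a fitted effect of over 50% in size; the assay follows cell death caused by Vpr and the record does not say whether a fall means rescue or toxicity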
#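 Fission yeast RE007 carrying one integrated HIV-1 vpr copy, seeded at OD 0.01 in PMG+AL medium with 23 nL pinned compound. Grown 24 h at 30 degrees; viability read by BacTiter-Glo luminescence after 5 min.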
# Cruzain inh noDet = cruzain (T. cruzi) inhibition without detergent | P25779 | AID 1476 | Potency, µM, inactives show max response, negative = inhibition, usual class: inhibitors | purified cruzain, Z-FR-AMC fluorescence, no detergent | actives 2.3% (n = 200,000); active = well fitted curve in the direction sought with a large enough effect; inconclusive = small, poorly fitted or top-dose-only effect, or another doubt; inactive = no such curve, though single readings can be large; an effect the other way counts as inactive or inconclusive;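 also: plate controls were enzyme without inhibitor for no effect and buffer without enzyme for full effect; nearly all actives have a fitted effect of over 40% in size; top concentration of the series not given in the record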
# Target sequence (P25779 123-467 limits assumed): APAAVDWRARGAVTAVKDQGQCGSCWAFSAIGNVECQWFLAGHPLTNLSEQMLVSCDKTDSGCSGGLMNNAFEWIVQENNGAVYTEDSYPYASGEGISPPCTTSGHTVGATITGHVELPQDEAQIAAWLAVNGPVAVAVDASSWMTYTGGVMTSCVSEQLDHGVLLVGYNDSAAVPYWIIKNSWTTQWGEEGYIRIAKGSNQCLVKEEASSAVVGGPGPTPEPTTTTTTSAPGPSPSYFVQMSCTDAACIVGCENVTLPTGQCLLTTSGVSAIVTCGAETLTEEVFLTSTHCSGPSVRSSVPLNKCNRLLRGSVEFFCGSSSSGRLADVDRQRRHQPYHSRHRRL
#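 Detergent-free condition (0.00005% Triton X-100) in acetate buffer pH 5.5 with DTT. 1.5 nM enzyme and compound were pre-mixed 15 min, then 2 uM Z-FR-AMC substrate added; reaction progress from fluorescence change between first and third reads (60 s).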
# SARS PLpro yeast = inhibitors of SARS-CoV papain-like protease in yeast; S. cerevisiae expressing SARS-CoV PLpro, growth rescue; control for the full effect not named in the record; Potency, µM (series often up to 32.9 µM), for the others: top-dose activity, positive = growth rescue; actives 0.19% (n = 330,000); also: 0% is about no effect; nearly all actives have a fitted effect of over 55% in size; growth read by luminescence after 48 h
# StopGo reporter = lowers the luciferase signal of an FMDV 2A StopGo reporter; human cells with a luciferase reporter of 2A StopGo recoding; control for the full effect not named in the record; Potency, µM (doses to about 57.9 µM), for inactives: top-dose signal change, negative = less light; actives 1.2% (n = 410,000); AID 1159524; active = well fitted falling curve with a large enough effect; inconclusive = small, poorly fitted or top-dose-only effect; inactive = no such curve, though single readings can be large or run the other way; tested in HEK293T cells; also: % is scaled to controls: 0 for no effect and ±100 for the full control effect; nearly all actives have a fitted effect of over 45% in size; luciferase light after 4 h
# Cruzain Triton = cruzain (T. cruzi) inhibition with detergent; P25779; purified cruzain, Z-FR-AMC fluorescence, 0.01% Triton; Potency, µM, without a hit: max response, negative = inhibition, usual class: inhibitors; actives 0.43% (n = 200,000); AID 1478; active = well fitted curve in the direction sought with a large enough effect; inconclusive = small, poorly fitted or top-dose-only effect, or another doubt; inactive = no such curve, though single readings can be large; an effect the other way counts as inactive or inconclusive;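 also: plate controls were neutral wells for no effect and buffer without enzyme for full effect; nearly all actives have a fitted effect of over 40% in size; top concentration of the series not given in the record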
#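 Z-FR-AMC hydrolysis (2 uM substrate) by cruzain (1.5 nM) monitored kinetically at ex 360/em 450 nm after 15 min room-temperature compound exposure; 0.01% Triton X-100, pH 5.5, 5 mM DTT.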
# * hit, by the source's call; ? = inconclusive; · = not tested or not shown; & = joins results of further samples; [ ] = remark or other dose. Unless noted, calls follow the shape of the dose curve; as a rule, active means well fitted rising curve with a large enough effect; inconclusive means small, poorly fitted or top-dose-only effect; inactive means no such curve, though single readings can be large or run the other way. Potency is read from the fitted curve at half-maximal effect.
SMILES,LASV entry inh,NS1 inh,Marburg entry inh,RE007 growth inh,Cruzain inh noDet,SARS PLpro yeast,StopGo reporter,Cruzain Triton
COc1ccc(C)cc1NC(=O)c1cc(S(=O)(=O)N2CCCC2)cn1C,·,1%,·,-6%,·,-1%,34%[activator],·
COc1cccc(CN2CC(C(=O)N(C)CC3CCOCC3)CCC2=O)c1 (stereo not drawn),3%,25%,-7%,16%,·,5%,0%,·
COc1ccc(/C=N\Nc2ccc([N+](=O)[O-])cc2[N+](=O)[O-])c(C(=O)O)c1OC,·,9%,·,-9%,·,0%,-12%,·
Cc1cccc2cc(-c3nc4ccc(C(=O)O)cc4[nH]3)c(=O)oc12,?,6%,?,-12%,·,0%,7.9µM*,·
N#CCC(=O)Nc1ccc(C(=O)NCc2cccc(Cl)c2)cc1,·,17%,·,3%,·,0%,-21%,·
Cn1cc(C2N3CC4(C)CN2CC(C)(C3)C4=O)c2ccccc21 (stereo not drawn),·,-5%,·,-20%,·,0%,-2%,·
COc1cccc(NC(=O)c2sc3nc(C)c(C(=O)Nc4ccc(C)cc4C)c(-c4cccs4)c3c2N)c1,?,·,2%[46.1 µM],·,-26%,·,-5%,0.6%
Cc1ccc(OC(=O)CSc2nnc(-c3cccs3)o2)cc1C,2%[46.1 µM],·,-16%[46.1 µM],·,-5%,·,-24%,-3.7%
COc1ccc2cc(CN(CC3CCCO3)C(=S)NCc3ccco3)c(=O)[nH]c2c1 (stereo not drawn),2%,2%,-7%[46.1 µM],-6%,·,1%,52%[activator],·
Cc1cccc(C(=O)NNC(=O)C2CC2)c1,·,15%,·,0%,·,-1%,-21%,·
NC(=O)[C@@H]1CCCCNc2c(I)cc([N+](=O)[O-])cc2C(=O)N[C@@H](CCC(=O)O)C(=O)N[C@@H](CO)C(=O)N1,?,-19%,-12%,4%,?,0%,-23%,-13%
CCCCCCSc1ncc(C#N)c(N)n1,-18%,-50%,8%,-16%,-9%,0%,9%,-1.4%
O=C(CCNS(=O)(=O)c1cccs1)NCc1cccs1,5%,8%,-2%[46.1 µM],-6%,-11%,-4%,-12%,3.6%
Cc1cccc(NC(=O)CN2C(=O)N/C(=C\c3cccn3-c3cccc(C(=O)O)c3)C2=O)c1,16%[46.1 µM],·,15%[46.1 µM],-5%,·,0%,-11%,·
COc1ccc2c(c1)C1(Nc3ccccc3-c3nc4ccccc4n31)C(=O)N2 (stereo not drawn),9%,-41%,-14%,2%,16%,27%,-13%,-6.4%
O=c1c2ccccc2nc(/C=C/c2ccccc2F)n1-c1cccc(O)c1,·,·,·,·,-2%,·,-16%,-5.7%
Cc1cc(C)n(-c2ccc(C(=O)NCCCN3CCOCC3)cc2)n1,4%[46.1 µM],·,0%[46.1 µM],6%,·,2%,1%,·
Cn1c(=O)oc2cc(S(=O)(=O)CCC(=O)NCCc3ccccc3)ccc21,?,6%,4%&4%[46.1 µM],4%,-2%,-7%,-3%&1%,-0.5%
O=C(Nc1ccc2oc(-c3ccccc3)nc2c1)c1ccccc1F,?,6%,1%,24%,-6%,2%,40%[activator],-2.2%
COc1ccc(Br)c(C(=O)NC(C)(C)CO)c1,5%[46.1 µM],-2%,6%[46.1 µM],5%,·,-1%,-17%,·
O=C(NCc1ccc(F)cc1)c1cnc(N2CCCCC2)c2ccccc12,?,·,·,·,-3%,·,-30%,-8.6%
O=c1[nH]c(/C=C\c2cccc(O)c2)nc(O)c1[N+](=O)[O-],·,20%,·,3%,·,10%,-5%,·
O=C(NNC(=O)c1ccncc1)c1ccccc1,·,0%,·,-1%,·,0%,-3%,·
COc1ccc(O)c(C(=O)c2cnn(C(=O)c3cc(C)oc3C)c2)c1,9%,-29%,22%,-5%,27%,-4%,5%,1.5%
O=C(CN1c2ccccc2S(=O)(=O)c2ccccc21)NCc1ccccc1,-7%[46.1 µM],28%,0%[46.1 µM],-9%,·,18%,24%,·
# Other entries:
SMILES,LASV entry inh,NS1 inh,Marburg entry inh,RE007 growth inh,Cruzain inh noDet,SARS PLpro yeast,StopGo reporter,Cruzain Triton
CC(NC(=O)c1cc2ccccc2o1)c1ccccc1 (stereo not drawn),?,-4%,·,-13%,-20%,0%,-23%&-4%,-3.8%
C=CCSC1=C(C#N)C(c2ccccc2OCC)CC(=O)N1 (stereo not drawn),-19%,-3%,-1%,-8%,-23%,-2%,-10%,0.4%
CC(=O)Nc1sc(C)c(C)c1C(=O)OCC(=O)Nc1cc(S(C)(=O)=O)ccc1Cl,·,2%,·,24%,·,-1%,-17%,·
O=C(N[C@@H](Cc1ccccc1)C(=O)NCCc1c[nH]c2ccccc12)c1ccco1,0%[46.1 µM],7%,-6%[46.1 µM],-6%,·,10%,-10%,·
Cc1ccc(N(C(=O)c2snc(C(N)=O)c2N)C(C(=O)NC2CCCC2)c2ccncc2)cc1 (stereo not drawn),-11%[46.1 µM],-10%,?,4%,·,1%,1%,·
COc1ccc(C)cc1NC(=O)C1CCN(S(=O)(=O)c2ccccc2)CC1,·,-1%,·,1%,·,3%,?,·
COc1ccc(N(C(=O)c2ccco2)C(C(=O)NC2CCCC2)c2ccco2)cc1OC (stereo not drawn),22%[46.1 µM],-8%,0%[46.1 µM],-14%,·,-1%,17%,·
N#CCSc1nc2c(cc1C#N)CCCC2,8%,-63%,?,7%,0%,-16%,15%,-1.1%
CCCc1cc(C(=O)NNC(=S)Nc2cccc(C)c2)cs1,13%,-17%,?,4%,6%,-2%,33%[activator],-6.4%
Cc1ccccc1N/N=C/c1c(C)nc2ccccn12,·,-5%,·,-6%,·,-3%,-21%,·
Cc1ccc(SCC(=O)Nc2ccccc2C(=O)N2CCOCC2)cc1,-3%,2%,?,-2%,17%,?,-15%,-0.9%
O=C(NC1CCCc2ccccc21)c1c(F)cccc1Cl (stereo not drawn),-10%,-8%,4%[46.1 µM],38%,·,1%,1%,·
CCc1ccc(C2c3c(n[nH]c3C)C(=O)N2c2ccc(C)cc2)cc1 (stereo not drawn),-17%[46.1 µM],·,-2%[46.1 µM],·,13%,·,25%,-12%
COc1cc(C(=O)N=c2sc3ccccc3n2C)cc(OC)c1OC,?,-12%,?,-7%,·,-2%,13%,·
NC(=O)c1ccsc1NC(=O)Cc1ccc([N+](=O)[O-])cc1,·,·,-12%[46.1 µM],-8%,·,-1%,-6%,·
CC1=C(C#N)C(=O)OC(C)(C)C1,6%,7%,?,7%,-18%,10%,0%,4.4%
O=C(c1cc(-c2ccccn2)nc2ccccc12)N1CCN(c2ncccn2)CC1,5%,4%,0%,-9%,·,1%,-11%,·
COc1ccc(C(=O)NCC(=O)N2CCN(c3ncccn3)CC2)cc1OC,-2%,·,-2%,9%,·,2%,-6%,·
O=c1oc2ccccc2c(O)c1C(c1ccc([N+](=O)[O-])cc1)c1c(O)c2ccccc2oc1=O,?,·,6%[46.1 µM],0%,·,3%,25%,·
Cc1ccc2[nH]c3c(N4CCCCCC4)ncnc3c2c1,·,-42%,1%,·,-28%,-7%,·,-2.3%
CCN(CC)CCn1c(SCC(=O)Nc2cccc(OC)c2)nc2c(sc3ccccc32)c1=O,?,·,?,-20%,·,-1%,-16%,·
COc1cccc(NC(=O)c2ccc(-n3cnnn3)cc2)c1,-2%,1%,15%[46.1 µM],-7%,·,-2%,-8%,·
COc1ccc(-c2cc(OC(=O)c3cccc(Cl)c3)c3c(C)oc(C)c3c(=O)c2)cc1OC,4%[46.1 µM],·,5%[46.1 µM],·,0%,·,-26%,-1.4%
O=C1C=CC(c2ccccc2)(c2ccccc2)CC1,-14%[46.1 µM],·,-11%[46.1 µM],4%,·,·,-5%,·
COc1ccc(-c2cc(C(F)F)n3ncc(C(=O)Nc4cc(C)on4)c3n2)cc1,8%,1%,?,16%,·,-3%,-29%,·

# Fetched by structure from the entries so far:
SMILES,LASV entry inh,NS1 inh,Marburg entry inh,RE007 growth inh,Cruzain inh noDet,SARS PLpro yeast,StopGo reporter,Cruzain Triton
O=C(Nc1ccc2oc(-c3ccccc3)nc2c1)c1ccccc1F,?,6%,1%,24%,-6%,2%,40%[activator],-2.2%
Cc1cccc(NC(=O)CN2C(=O)N/C(=C\c3cccn3-c3cccc(C(=O)O)c3)C2=O)c1,16%[46.1 µM],·,15%[46.1 µM],-5%,·,0%,-11%,·
CC(NC(=O)c1cc2ccccc2o1)c1ccccc1 (stereo not drawn),?,-4%,·,-13%,-20%,0%,-23%&-4%,-3.8%

# The results go on.
SMILES,LASV entry inh,NS1 inh,Marburg entry inh,RE007 growth inh,Cruzain inh noDet,SARS PLpro yeast,StopGo reporter,Cruzain Triton
O=C(COc1ccc2c3c(c(=O)oc2c1)CCCC3)N[C@@H](Cc1ccccc1)C(=O)O,·,28%,·,1%,·,4%,-16%,·
Cc1cc(N2CCN(c3ccccc3)CC2)n2cnnc2n1,4%[46.1 µM],·,2%[46.1 µM],·,2%,·,0%,0.8%
COc1cccc(NC(=O)Cn2c(=O)n(Cc3ccc(C(=O)NCc4ccc(C)cc4)cc3)c(=O)c3ccccc32)c1,?,·,?,·,13µM*,·,-3%,-1.3%
CCOc1ccccc1NC(=O)c1cc(=O)c2ccc(C)cc2o1,10%[46.1 µM],·,6%[46.1 µM],·,-5%,·,-15%,-1.7%
Cc1ccccc1C(=O)Nc1ccc(O)cc1C(=O)O,1%,9%,4%,2%,·,0%,-18%,·
Clc1ccc(-c2c[n+](Cc3ccc(Br)cc3)c3n2CCCCC3)cc1,-18%[46.1 µM],-1%,?,-10%,·,2%,6%,·
CCn1c(CNc2cccc(Cl)c2)nnc1SCC(=O)OC1CCCCC1,20%,-49%,13%,3%,9%,-31%,·,-9.3%
O=C(Nc1ccnn1C1CCN(Cc2cccc(OCCO)c2)CC1)C1CCOC1 (stereo not drawn),5%,8%,-27%,-5%,·,2%,-10%,·
COc1ccc(C2=C(C)C(=O)N(Cc3ccc(C(=O)NCc4ccc(C)cc4)cc3)S2(=O)=O)cc1,15%[46.1 µM],·,·,·,-16%,·,-19%,-7.0%
Oc1c(Br)cccc1/C=N/c1ncn[nH]1,-3%[46.1 µM],5%,?,-4%,·,0%,-12%,·
